Compound activity from PubChem BioAssay.
Sa growth inh: blocks Staphylococcus aureus growth; S. aureus RN4220 growth, OD600, 20 h, 42 °C; active compounds read low; hit rate 0.53% among 170,000; relative growth, % (no concentration beside the values);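 active means growth at 42 °C up to 50% and 20 or more points under that at 30 °C, or under 10% at both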;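 further: 300 nL library stock went into each well; scaled to the means of positive and negative controls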
HCMV UL50-53 inh: cytomegalovirus nuclear egress complex inhibition | HTRF UL50-UL53 interaction, normalized percent inhibition | inhibition, % (test concentration not listed) | hit rate 0.15% among 190,000;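 active means both replicates at 50% or more, plus weaker picks with an unusually low signal ratio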;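 further: stock transfer was 100 nL into about 20 µL; 0% = negative control wells and 100% = wells with untagged competitor protein; inactives centre near -12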
GIV Gai3 FP: blocks GIV peptide binding to rat Galpha-i3 | Galpha-i3/FITC-GIV peptide fluorescence polarization, 90 min; active compounds read low; scaled: aluminum fluoride 0%, vehicle 100% | percent of control (FP), % (no concentration beside the values) | hit rate 0.42% among 210,000 | AID 1224905;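 active means replicate mean at 85% of control or lower, very high polarization wells dropped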;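 further: wells of about 15 µL received 100 nL stock; the first replicate is given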
Target sequence (P08753 whole entry, looked up): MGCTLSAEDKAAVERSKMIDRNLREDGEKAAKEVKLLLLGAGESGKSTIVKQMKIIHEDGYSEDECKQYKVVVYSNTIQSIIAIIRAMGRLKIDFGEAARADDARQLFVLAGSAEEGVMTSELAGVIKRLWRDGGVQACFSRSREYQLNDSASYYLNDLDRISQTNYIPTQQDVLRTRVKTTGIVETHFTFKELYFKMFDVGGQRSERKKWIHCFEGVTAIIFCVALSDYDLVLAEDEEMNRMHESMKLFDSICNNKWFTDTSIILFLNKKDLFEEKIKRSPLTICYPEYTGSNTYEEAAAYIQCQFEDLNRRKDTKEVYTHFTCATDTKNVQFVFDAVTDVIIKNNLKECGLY
Sa growth inh second temp: second read-out of Sa growth inh, no call of its own (marks repeat the call); relative growth, %; measured here: growth at 30 °C;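 optical density after 20 h as mean of two plates; 100% = untreated growth and lower means inhibition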
An asterisk follows results filed as active; . = no result given. Rows were taken by chance. Share with any hit: about 0.83%.

molecule	Sa growth inh	Sa growth inh second temp	HCMV UL50-53 inh	GIV Gai3 FP
COc1ccccc1CNc1nc(-c2ccco2)nn1S(=O)(=O)c1ccc2ccccc2c1	93.1	96.2	1.6	108.9
CCOC(=O)c1nn(-c2cccc(Cl)c2)cc(Sc2ccc(Cl)cc2)c1=O	135.5	85.7	-31.9	100.0
CC(=O)Nc1ccc(S(=O)(=O)N2CCN=C2c2ccccc2)cc1	102.2	102.5	-5.4	106.3
CCCc1ccc(S(=O)(=O)N2CCN(c3ccc(=O)n(-c4ccc(F)cc4)n3)CC2)cc1	.	.	-28.6	106.4
CCN(C(=O)c1cc2c(=O)oc3ccc(C)cc3c2s1)c1cc(OC)ccc1OC	114.1	88.2	-33.9	104.5
CCOC(=O)Cn1c(=O)n(CC2CCCO2)c2nc(-c3ccccc3OC)nc(C(N)=O)c21 (stereo not given)	96.3	90.2	.	101.6
Cc1cccc(CCNC(=O)C2CCN(c3ncnc4c3nc3n4CCCCC3)CC2)c1	108.1	95.2	.	107.1
O=C(O)CCCc1nnc2n3nc(-c4ccccc4)nc3c3ccccc3n12	78.7	85.3	.	95.2
C=CCc1ccc(OCCCn2ccnc2)c(OC)c1	96.6	76.7	-20.6	98.0
COc1ccc(N2CCN(c3nc(N)c4c(N)nc5c(c4c3C#N)CC(=O)N5C)CC2)cc1	100.7	95.6	-32.7	.
CSc1ccc(CN2C(=O)CCC2(C)C(=O)N2CCCC2)cc1 (stereo not given)	92.2	88.9	-13.5	107.8
CCC(C)NC(=O)C1CCN(C(=O)c2ccc(-n3ccc4ccccc43)s2)CC1 (stereo not given)	94.0	89.6	.	103.3
O=S(=O)(c1ccc(F)cc1)N1CCC2(CC1)Nc1ccc(Cl)cc1-n1cccc12	.	.	-19.4	105.5
C#CCN1C(=O)C(c2c(-c3ccc(Cl)cc3)[nH]c3c2c(=O)n(C)c(=O)n3C)c2ccccc21 (stereo not given)	.	.	-14.2	105.1
CC(C)Sc1cc2c(cc1NC(=O)c1ccccc1Cl)n(C)c(=O)n2C	.	.	-25.3	109.4

Continued, overlapping the part above by 7 compounds.
molecule	Sa growth inh	Sa growth inh second temp	HCMV UL50-53 inh	GIV Gai3 FP
C=CCc1ccc(OCCCn2ccnc2)c(OC)c1	96.6	76.7	-20.6	98.0
COc1ccc(N2CCN(c3nc(N)c4c(N)nc5c(c4c3C#N)CC(=O)N5C)CC2)cc1	100.7	95.6	-32.7	.
CSc1ccc(CN2C(=O)CCC2(C)C(=O)N2CCCC2)cc1 (stereo not given)	92.2	88.9	-13.5	107.8
CCC(C)NC(=O)C1CCN(C(=O)c2ccc(-n3ccc4ccccc43)s2)CC1 (stereo not given)	94.0	89.6	.	103.3
O=S(=O)(c1ccc(F)cc1)N1CCC2(CC1)Nc1ccc(Cl)cc1-n1cccc12	.	.	-19.4	105.5
C#CCN1C(=O)C(c2c(-c3ccc(Cl)cc3)[nH]c3c2c(=O)n(C)c(=O)n3C)c2ccccc21 (stereo not given)	.	.	-14.2	105.1
CC(C)Sc1cc2c(cc1NC(=O)c1ccccc1Cl)n(C)c(=O)n2C	.	.	-25.3	109.4
COc1ccc(CC(=O)NC(c2ccccc2)c2ccccc2)cc1	102.3	95.7	-15.5	.
O=C(CN1C(=O)COc2ccc(C(=O)N3CCCC3)cc21)N1CCN(c2ncccn2)CC1	.	.	-36.9	100.2
COC(=O)c1cc(COC(=O)c2cc(CN3C(=O)c4ccccc4C3=O)ccc2OC)oc1C	91.9	98.6	0.0	.
COc1ccccc1C(=O)c1nc2ccccc2n1C	90.8	95.3	.	106.5
CCOC(=O)c1csc(-c2ccc3c(c2)CCO3)n1	113.1	71.5	-16.4	101.6
Cc1cc(C)c(S(=O)(=O)N2CCCC2c2ccc(Cl)cc2)cc1C (stereo not given)	.	.	10.6	106.0
Cc1cccc(N2C(=O)C3C(C(=O)NC4CC4)C4C=CC3(O4)C2C(=O)NC2CCCC2)c1 (stereo not given)	105.4	93.4	-26.9	97.2
Cc1cn(-c2ncnc3scc(-c4ccccc4)c23)nc1C(F)(F)F	100.2	86.0	.	103.1
Cc1ccc(-c2cc(C(=O)N(Cc3ccccc3)Cc3ccco3)no2)cc1F	99.3	92.6	4.3	102.3
c1ccc(CSc2nnc(-c3c[nH]c4ccccc34)o2)cc1	119.3	95.7	-8.0	.
N#Cc1nc(-c2ccc(S(=O)(=O)N3CCCC3)cc2)oc1NCC1CCCO1 (stereo not given)	.	.	-77.3	101.0
Cc1ccc(-n2c(C)cc(/C=C(\C#N)C(=O)NCC3CCCO3)c2C)cc1 (stereo not given)	99.2	111.7	-43.3	98.3
CC1CCC(NC(=O)C(Cc2ccccc2)NC(=O)C2CCCCC2)CC1 (stereo not given)	121.8	90.1	-2.6	97.7
CCOc1ccc(-c2cc(CCCC(=O)Nc3ccc(F)cc3F)no2)cc1	76.3	96.2	-0.5	97.8
O=S(=O)(CCSc1cccs1)c1ccc(F)cc1	113.5	90.6	-4.4	106.1

Next part:
molecule	Sa growth inh	Sa growth inh second temp	HCMV UL50-53 inh	GIV Gai3 FP
Nc1ccc(SC(F)(F)F)cc1	94.9	90.1	-7.4	.
CCOC(=O)c1c(C)n(-c2ccccc2)c2ccc(OC(=O)c3cccc(F)c3)cc12	.	.	-8.3	105.0
CSC(=O)NC(=O)c1cccc(=O)o1	98.7	111.6	-9.1	102.5
O=C(CSc1nnc2sc3ccccc3n12)c1cccc2ccccc12	.	.	-21.7	101.5
Cc1c(O)ccc(C(=O)COc2ccccc2)c1O	127.8	103.1	-12.7	.
CNC(=O)c1cc2c(=O)n3cc(C)ccc3nc2n(C(C)C)c1=N	90.4	84.6	-151.0	104.3
Cc1ccc(NC(=O)c2c(C)oc3ccc(O)c(CN4CCCC4)c23)c(C)c1	105.2	89.1	-7.4	101.0
O=C(NCC12CC3CC(CC(C3)C1)C2)C1CCCCC1C(=O)OCC(F)(F)F (stereo not given)	113.1	91.8	-7.4	.
O=C1N(CN2CCN(Cc3ccccc3)CC2)c2ccccc2C12OCCCO2	96.2	84.4	-28.5	100.2
CCOC(=O)c1cc(=O)c2ccc(OC(=O)c3cccs3)cc2o1	108.3	89.9	-4.0	98.8
CCCCNC1CCS(=O)(=O)C1 (stereo not given)	99.3	89.9	-11.1	.
CCN(CC)C(=O)c1sc2c(c1C)c(=O)n(-c1ccc(Cl)c(Cl)c1)c(=O)n2CC(=O)Nc1cccc(OC)c1	80.8	96.2	.	98.7
Cc1cc(C)cc(NC(=O)NCc2noc3ccccc23)c1	87.8	82.4	.	101.3
Cc1ccc(CNc2ncc(-c3ccc(C)cc3)n2C)cc1	78.8	55.9	-26.1	97.3
c1ccc(N2CCN(CCNc3ncnc4nc[nH]c34)CC2)cc1	86.9	85.1	-30.3	95.9

As a short view, part of the list above.
molecule	Sa growth inh	Sa growth inh second temp	HCMV UL50-53 inh	GIV Gai3 FP
CSC(=O)NC(=O)c1cccc(=O)o1	98.7	111.6	-9.1	102.5
O=C(CSc1nnc2sc3ccccc3n12)c1cccc2ccccc12	.	.	-21.7	101.5

The listing continues.
Value order – Sa growth inh | Sa growth inh second temp | HCMV UL50-53 inh | GIV Gai3 FP
> CCN(C(=O)c1cccc(S(=O)(=O)N2CCCC2)c1)c1nc2c(C)cccc2s1
  107.3 | 83.2 | -20.4 | .
> Cc1ccccc1Nc1sc(C(=O)c2ccccc2)c(N)c1C(N)=O
  92.6 | 74.7 | . | 101.1
> Cc1ccc(CNC(=O)C(CC(C)C)NS(=O)(=O)c2ccc3c(c2)oc(=O)n3C)cc1 (stereo not given)
  108.9 | 92.8 | -19.6 | 105.6
> O=C(CS(=O)(=O)c1cccc2nsnc12)NCc1ccccc1
  80.0 | 82.0 | . | 104.1
> Cn1nnc2cc(C(=O)N3CCCCCC3)ccc21
  113.8 | 78.6 | -13.3 | 103.2
> CCOc1ccc(CN2CCCC2c2ccc(Cl)cc2)cc1OCC (stereo not given)
  . | . | 14.7 | 107.9
> CN(C(=O)COCc1cc(-c2ccco2)on1)c1ccccc1
  89.2 | 85.5 | -43.4 | 104.8
> Cc1cc(C(=O)COn2nnc3ccc(Cl)cc32)c(C)n1-c1ccc2c(c1)OCCO2
  99.0 | 93.5 | -18.1 | .
> N#Cc1ccccc1NC(=O)C(=O)NCC(c1cccnc1)N1CCc2ccccc21 (stereo not given)
  106.1 | 92.3 | -1.7 | 103.6
> CCN1C(=O)S/C(=C\c2ccc3c(c2)OCO3)C1=O
  83.9 | 88.9 | . | 102.6
> CSc1nc2ccc(S(=O)(=O)N3CCc4ccccc43)cc2s1
  98.3 | 84.6 | -5.0 | .
> CCc1ccc(S(=O)(=O)c2c(C(=O)c3ccccc3)cnc3ccc(CC)cc23)cc1
  119.2 | 91.9 | -26.9 | 104.0
> O=C(CSC1=NS(=O)(=O)c2ccccc2N1)N1CCCC1
  98.8 | 83.7 | -31.9 | 106.1
> COc1cc(NC(=O)N2CCN(c3cc(N(C)C)nc(C)n3)CC2)cc(OC)c1
  . | . | -42.0 | 99.8
> CCn1c(CN2CCN(C(C)=O)CC2)nc2cc(NC(=O)C3CCCCC3)ccc21
  . | . | -6.8 | 97.5

Continued.
Value order – Sa growth inh | Sa growth inh second temp | HCMV UL50-53 inh | GIV Gai3 FP
> CN(C)c1nn(C(=O)NC(C)(C)C)cc1-c1ccccc1
  . | . | -14.7 | 106.0
> CNC(=O)C1CCC(=O)N1Cc1ccc(C)cc1 (stereo not given)
  92.9 | 86.0 | 4.2 | 100.2
> O=c1cc[nH]c2cc(N3CCOCC3)c(F)cc12
  107.2 | 86.3 | -14.0 | .
> CCc1ccc(NC(=O)C(C)OC(=O)c2ccc3c(c2)OCO3)cc1 (stereo not given)
  96.4 | 98.3 | -9.5 | .
> CCCCCn1c(=O)[nH]c2cc(C(=O)N3CCC(Cc4ccccc4)CC3)ccc2c1=O
  . | . | -23.4 | 102.6
> CC(C)(C)OC(=O)N1CCC(c2c(C(=O)N3CCOCC3)cnn2-c2ccccc2Cl)CC1
  78.3 | 91.9 | . | 105.3
> Cc1ccc(N2C(=O)CSC23C(=O)N(CC(=O)NCc2ccccc2)c2ccccc23)cc1 (stereo not given)
  103.8 | 102.1 | . | 102.4
> Cn1c(C(=O)NC2CCCCC2)cc2c(=O)oc3ccccc3c21
  . | . | -3.8 | 107.8
> FC(F)(F)c1ccnc(SCn2c(=S)sc3ccccc32)n1
  111.0 | 91.8 | -24.4 | 97.4
> N#CCC(=O)NC(=O)Nc1ccc(F)cc1F
  107.1 | 90.7 | -1.4 | 110.3
> CC(/C=C/c1ccc[n+](C)c1)=C\C(=O)O
  90.5 | 84.4 | -61.6 | 99.4
> CCN(CC)C(=O)C1CCCN1 (stereo not given)
  106.0 | 98.9 | 7.9 | .
> CCOC(=O)C1CCCN(C(=O)c2sc3ncnc(N4CCN(c5ccc(OC)cc5)CC4)c3c2C)C1 (stereo not given)
  . | . | -18.5 | 103.4
> CCn1nccc1C1CCCN1C(=O)Nc1ccsc1C(=O)OC (stereo not given)
  . | . | -21.6 | 99.6
> Cc1cc(C)c(S(=O)(=O)Nc2ccc(-c3ccc(N4CCCCC4)nn3)cc2)c(C)c1
  113.2 | 104.0 | . | 107.8

Next section
Value order – Sa growth inh | Sa growth inh second temp | HCMV UL50-53 inh | GIV Gai3 FP
> COc1ccc(Nc2cc(C)c3cc(NC(=O)c4ccc(OC)cc4)ccc3n2)cc1
  123.4 | 83.1 | . | 100.7
> CCOc1ccc(OCC)c(NC(=O)CCc2c(C)nn(-c3cc(N(C)C)ncn3)c2C)c1
  . | . | -29.2 | 103.5
> COc1ccc(NC(=O)c2cccn2-c2nnc(N3CCCCC3)s2)c(OC)c1
  104.8 | 82.9 | . | 98.5
> Cc1ccc(-n2nnc(C(=O)Nc3ccc(C)c(Cl)c3)c2N)cc1C
  . | . | -30.0 | 101.5
> O=C(Nc1ccc(S(=O)(=O)Nc2ncccn2)cc1)c1ccc2c(c1)C(=O)N(Cc1ccncc1)C2=O
  96.1 | 95.2 | -66.0 | .
> O=c1cc(CN2CCC(Cc3ccccc3)CC2)c2ccc(O)cc2o1
  65.8 | 12.5 | -22.2 | .
> CN(C)CCCN1C(=O)C2CCc3[nH]c4ccccc4c3C2C1=O (stereo not given)
  96.2 | 101.3 | 1.9 | 97.6
> COc1cc(OC)c(NC(=O)c2nn(C)c3c2COc2ccccc2-3)cc1Cl
  105.6 | 91.2 | 10.2 | 106.7
> Cn1nccc1NC(=O)c1ccccc1
  93.6 | 96.4 | -19.3 | 100.0
> CSc1ncc2c(c1C#N)CCCC2
  83.2 | 97.9 | -25.3 | 104.0
> Cc1ccc(Cl)cc1N1CCN(C(=O)c2cc(S(=O)(=O)N3CCCC3)cn2C)CC1
  120.1 | 102.7 | -6.3 | 100.5
> COc1cccc(-n2c(C)cc(CN)c2C)c1
  . | . | -12.1 | 126.3
